Source: PubChem (National Center for Advancing Translational Sciences (NCATS))
Sfp inh: Sfp phosphopantetheinyl transferase inhibition; Q9F4F7; Biochemical Sfp PPTase activity, qHTS; Potency, µM, inactives show max response, negative = inhibition, actives largely listed as inhibitors; 3.5% of 310,000 active; active means well fitted inhibition curve with a large enough effect; inconclusive means small, poorly fitted or top-dose-only effect, or another doubt; inactive means no such curve, though single readings can be large or run the other way;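 further: the enzyme is Sfp with the accession as filed and its product quenches rhodamine fluorescence; potency means the concentration at half of the fitted maximal effect; 0% = enzyme reaction without inhibitor and -100% = no enzyme wells; top concentration of the series not given in the record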
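After 15 min at room temperature with compound, 15 nM Sfp received 5 uM rhodamine-CoA plus 12.5 uM BHQ-2-ybbR (50 mM Hepes pH 7.6, 10 mM MgCl2). Rate came from the fluorescence difference over 30 min, ex 525/em 598 nm.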
gsp antagonist: antagonizes gsp, the McCune-Albright syndrome mutation; gsp-mutant cells, cAMP HTRF, 30 min; control for the full effect not named in the record; Potency, µM (doses to about 76.9 µM), for the others: at the top dose activity change, negative = inhibition, most hits filed as inhibitors; 0.4% of 340,000 active; active = falling curve of any shape with a large fitted effect; inconclusive = falling curve, mostly with a smaller effect; inactive = flat or rising curve; cell line not stated here;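 further: intracellular cAMP measured with PDE inhibitor Ro 20-1724 present during compound exposure; potency means the concentration at half of the fitted maximal effect; on the % scale 0 is the no-effect control and ±100 the full control effect; nearly all actives have a fitted effect of over 65% in size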
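G418-selected cells were plated in DMEM/10% FBS for 16-24 h at 37C, then treated with compounds plus the PDE inhibitor […] (300 uM solution added) for 30 min at 37C. Intracellular cAMP was measured by HTRF after 30 min lysis at room temperature.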
gsp ag: gsp mutant agonism; AID 624287; 0.13% of 340,000 active; gsp mutant cells, cAMP HTRF, 30 min; control for the full effect not named in the record; Potency, µM (highest dose often 76.9 µM), inactives show at the top dose activation (cAMP increase), actives largely listed as activators; active = well fitted activation curve with a large enough effect; inconclusive = small, poorly fitted or top-dose-only effect, or another doubt; inactive = no such curve, though single readings can be large or run the other way; cell line not stated here;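 further: phosphodiesterase inhibitor Ro 20-1724 added with compounds to block cAMP breakdown; potency means the concentration at half of the fitted maximal effect; nearly all actives have a fitted effect of over 60% in size; about a fifth of the inactives were tested at one dose only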
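Cells in DMEM/10% FBS with G418 were pretreated with compounds in DMSO plus […] (300 uM stock) for 30 min at 37C. cAMP was measured by HTRF (cAMP-d2 plus anti-cAMP antibody-K) after 30 min at room temperature.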
TRPV1 potentiator: potentiators of human vanilloid receptor 1 (TRPV1). Q8NER1. TRPV1-expressing cells, Fluo-8 calcium influx, capsaicin EC20 potentiation; host cell line not named in the record; control for the full effect not named in the record. AID 540277. potentiation, % at 8.33 µM. 0.02% of 320,000 active; active means potentiation above 80%; inconclusive means 30% to 80%; inactive means below 30%; further: 0% is about no effect
Target sequence (Q8NER1 whole entry, looked up): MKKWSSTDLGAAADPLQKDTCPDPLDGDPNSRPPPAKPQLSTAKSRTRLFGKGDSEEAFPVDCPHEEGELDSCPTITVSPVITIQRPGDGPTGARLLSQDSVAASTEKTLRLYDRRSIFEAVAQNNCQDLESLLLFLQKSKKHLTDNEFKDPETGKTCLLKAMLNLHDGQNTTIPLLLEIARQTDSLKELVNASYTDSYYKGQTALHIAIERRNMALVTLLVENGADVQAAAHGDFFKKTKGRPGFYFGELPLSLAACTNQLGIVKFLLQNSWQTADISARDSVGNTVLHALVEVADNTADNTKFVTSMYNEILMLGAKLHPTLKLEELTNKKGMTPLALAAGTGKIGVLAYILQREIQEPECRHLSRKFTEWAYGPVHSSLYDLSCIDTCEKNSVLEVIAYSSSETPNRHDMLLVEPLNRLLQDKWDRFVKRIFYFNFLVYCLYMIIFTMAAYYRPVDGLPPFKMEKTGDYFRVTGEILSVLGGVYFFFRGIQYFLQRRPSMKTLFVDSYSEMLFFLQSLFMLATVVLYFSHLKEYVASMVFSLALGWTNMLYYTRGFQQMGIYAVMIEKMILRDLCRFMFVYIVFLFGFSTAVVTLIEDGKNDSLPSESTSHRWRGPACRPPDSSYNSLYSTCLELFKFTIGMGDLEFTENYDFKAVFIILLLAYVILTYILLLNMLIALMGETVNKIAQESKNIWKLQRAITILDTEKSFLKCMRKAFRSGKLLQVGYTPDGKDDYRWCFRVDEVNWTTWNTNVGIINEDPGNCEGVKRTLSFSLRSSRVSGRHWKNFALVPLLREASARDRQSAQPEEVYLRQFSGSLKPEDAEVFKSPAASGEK
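Cells expressing TRPV1 were dye-loaded with Fluo-8 and read kinetically: 10 s baseline, 3 min after compound (agonist portion), then 2 min after EC20 capsaicin (allosteric enhancer portion). Calcium-bound dye fluorescence at 480/520 nm.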
CtBP-E1A inh: inhibitors of CtBP/E1A interaction; AlphaScreen GST-E1A/His-CtBP binding, 1536-well; stronger effect = lower value; control for the full effect not named in the record; activity change, % (no concentration beside the values); 0.49% of 340,000 active; AID 651724; in the data active means activity change below about -65%; inconclusive means about -30% to -65%; inactive means above about -30%; further: on the % scale 0 is the no-effect control and ±100 the full control effect; compound concentration not given in the record
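Steps: dispense buffer (Tris pH 8.0, NaCl 300 mM, TCEP 1 mM, BSA, Tween 20); add 5X protein mix (GST-E1A, His-CtBP, 125 nM each); pin 23 nL compound; 2 h at 37 °C, dark; add 5X beads (50 ug/mL); 1 h; read.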
ClpP mod: qHTS Assay for Activators of ClpP; ATP-dependent Clp protease proteolytic subunit (Bacillus subtilis (strain 168)), P80244; purified B. subtilis ClpP, FRET peptide cleavage, 20 min; Potency, µM (top dose mostly 57.5 µM), without a hit: at the highest dose activity change, negative = active; 1.9% of 340,000 active; active = well fitted falling curve with a large enough effect; inconclusive = small, poorly fitted or top-dose-only effect; inactive = no such curve, though single readings can be large or run the other way; further: potency means the concentration at half of the fitted maximal effect; the source files actives as falling curves though it sought activators and does not explain the sign; nearly all actives have a fitted effect of over 65% in size; many hits overshoot -100%
Target sequence (P80244 whole entry, looked up): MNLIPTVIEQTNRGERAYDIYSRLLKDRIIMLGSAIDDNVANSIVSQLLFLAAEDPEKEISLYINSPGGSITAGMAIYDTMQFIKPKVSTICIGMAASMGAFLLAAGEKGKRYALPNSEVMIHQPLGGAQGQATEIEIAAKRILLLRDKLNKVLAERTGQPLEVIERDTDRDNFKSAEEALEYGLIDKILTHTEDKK
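Purified B. subtilis ClpP, 10 microg/mL final in Tris/HCl pH8 with KCl, BSA, glycerol and Tween-20, cleaved an Abz/nitrotyrosine-quenched decapeptide. Fluorescence (ex 320, em 430) was read at 0 and 20 min at room temperature. Delta was normalized to 5.8 microM ADEP and DMSO/no-enzyme controls.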
Menin MLL FP FL: inhibitors of human menin-MLL interaction, wild-type MLL peptide; AID 1766; Fluorescence polarization, fluorescein-MLL peptide displacement from menin; FP activity change, % at 61.4 µM; 290,000 tested, under 10 active; inconclusive = falling polarisation curve, or a change in total fluorescence; inactive = total fluorescence flat and polarisation flat or rising; no compound was filed as active; the % refers to the polarisation; negative = inhibition;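 further: % of control where 0% means no effect; inhibitors lower the polarisation; unlabelled MLL peptide was the positive control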
Numbers without * were called inactive; ? = inconclusive; · = no result given; [ ] = another dose, or the depositor's remark.

SMILES	Sfp inh	gsp antagonist	gsp ag	TRPV1 potentiator	CtBP-E1A inh	ClpP mod	Menin MLL FP FL
C=C(C)COc1ccc2oc(C)c(C(=O)OCCOC)c2c1	-11.3%	-15.9%	4.4%	-22.5	54.9	1.0%	0.6
COc1ccc(OC)c(S(=O)(=O)NCCO)c1	11.5%	-5.6%	-18.5%	25.0	-0.1	-2.5%	-0.4
CC12CC3CC(C)(C1)CC(C(=O)Nc1nn[nH]n1)(C3)C2	-2.1%	-13.4%	-15.3%	-2.8	0.6	-0.9%	0.9
O=C(O)c1cc2c(ccc3ccccc32)oc1=O	9.1%	·	·	5.9	·	·	0.9
N#CCCn1c(=O)n(CCC#N)c2ccccc21	18.8%	6.6%	10.7%[15.4 µM]	1.7	7.5	·	-1.8
Cc1ccc(-n2[nH]c(C)c(/C=N/Nc3ccc([N+](=O)[O-])cc3[N+](=O)[O-])c2=O)cc1C	-7.5%	-5.3%	-31.5%[inhibitor]	3.6	-8.2	-0.8%	4.1
O=C(CCCCCn1nnc2ccccc2c1=O)Nc1ccccc1Cl	10.6%	3.2%	-3.6%[15.4 µM]	-11.4	2.9	-0.2%	0.6
CCOC(=O)C1=C(C)N(C[C@@H]2CC[C@@H](Cc3ccc(-c4ccccc4)cc3)O2)C(=O)NC1C1CC1 (some centres undefined)	·	-12.9%	·	·	-5.6	-2.7%	·
CCCCNC(=O)CC(=O)Nc1ccccc1C(=O)O	8.2%	0.7%	-2.2%	-17.5	7.2	-11.3%	0.7
O=C(NCCc1ccc(Cl)cc1)c1cc(S(=O)(=O)N2CCCC2)ccc1F	·	·	-19.6%	·	2.7	-1.4%	·

Among those listed so far, four have nitrogen in an aromatic ring.
SMILES	Sfp inh	gsp antagonist	gsp ag	TRPV1 potentiator	CtBP-E1A inh	ClpP mod	Menin MLL FP FL
CC12CC3CC(C)(C1)CC(C(=O)Nc1nn[nH]n1)(C3)C2	-2.1%	-13.4%	-15.3%	-2.8	0.6	-0.9%	0.9
N#CCCn1c(=O)n(CCC#N)c2ccccc21	18.8%	6.6%	10.7%[15.4 µM]	1.7	7.5	·	-1.8
Cc1ccc(-n2[nH]c(C)c(/C=N/Nc3ccc([N+](=O)[O-])cc3[N+](=O)[O-])c2=O)cc1C	-7.5%	-5.3%	-31.5%[inhibitor]	3.6	-8.2	-0.8%	4.1
O=C(CCCCCn1nnc2ccccc2c1=O)Nc1ccccc1Cl	10.6%	3.2%	-3.6%[15.4 µM]	-11.4	2.9	-0.2%	0.6

Later entries.
SMILES	Sfp inh	gsp antagonist	gsp ag	TRPV1 potentiator	CtBP-E1A inh	ClpP mod	Menin MLL FP FL
O=c1cnc2ccccc2n1Cc1ccccc1C(F)(F)F	15.3%	4.2%	4.2%	28.2	5.5	·	-0.6
O=C(N/N=C\c1ccc([N+](=O)[O-])o1)c1cncc(Br)c1	-1.2%	8.7%	8.3%[15.4 µM]	7.7	?	-1.6%	-0.5
CC1C(C#N)=C(N)OC2=C1C(=O)CCC2 (centres undefined)	6.1%	3.6%	25.6%	-7.3	-0.3	11.2%	2.6
CC(=O)N1CCCc2cc(S(=O)(=O)NCCC3=CCCCC3)ccc21	-4.4%	-37.6%	3.6%	15.4	4.5	-0.3%	0.6
CC(C)n1cnc2c(Nc3cccc(Cl)c3)nc(N(CCO)CCCO)nc21	12.1%	5.6%	·	9.1	-12.8	-24.0%	-2.1
O=C1C2C3C=CC(CNS(=O)(=O)c4ccccc4)(O3)C2C(=O)N1c1ccc(Cl)cc1 (centres undefined)	25.1µM*	-5.3%	5.9%	0.2	7.5	1.6%	-0.3
O=C(COC(=O)COc1ccc(Br)cc1)NC1CCCCCC1	·	14.2%	21.0%	-8.5	1.2	1.3%	·
COCCn1c(SCC#N)nnc1-c1ccc(OC)cc1	26.2%	4.9%	25.7%	-12.0	-3.4	-2.5%	3.7
CCCC(=O)N1CC2(CCC)CN(C(=O)CCC)CC(CCC)(C1)C2=O	13.4%	6.5%	15.6%	-6.6	0.7	0.0%	1.0
Cc1ccccc1C(=O)NC(=S)Nc1ccc(S(=O)(=O)N2CCOCC2)cc1	-7.9%	3.5%	8.8%[15.4 µM]	-15.0	-26.8	-0.3%	-3.1
COc1ccc(CN2CCN(C(=O)c3c(-c4ccccc4)noc3C)CC2)cc1F	·	-8.3%	-31.7%[inhibitor]	17.1	·	0.7%	·
CC(C)C(=O)NC(NC1CCS(=O)(=O)C1)C(Cl)(Cl)Cl (centres undefined)	8.3%	10.7%	-18.8%[15.4 µM]	5.6	9.2	-0.8%	-1.1
O=S1(=O)N=C(N2CCCc3ccccc32)c2ccccc21	-2.4%	-5.0%	-60.0%[inhibitor]	-4.8	-3.8	-0.8%	-0.2
O=C(NC1CC1)c1sccc1-n1cccc1	14.4%	3.5%	-5.1%	-3.9	-1.6	1.3%	3.2
O=S(=O)(c1ccc(-c2n[nH]c(=S)o2)cc1)N1CCCC1	-19.8%	-18.5%	1.7%[15.4 µM]	3.0	-2.4	·	·
CC(NC(=O)c1cc(S(=O)(=O)N(C)C)ccc1Cl)C1CC2CCC1C2 (centres undefined)	5.9%	-22.4%	1.9%[15.4 µM]	4.9	0.0	-0.2%	-1.2
CCOC(=O)C1(CC)NC(c2ccc(N(C)C)cc2)C2C(=O)N(C)C(=O)C21 (centres undefined)	2.0%	5.6%	-4.0%	8.3	-3.1	-2.0%	-1.3
Cn1cc(S(=O)(=O)NCc2ccco2)c(=O)n(C)c1=O	17.0%	5.7%	0.0%	13.8	0.4	-0.6%	-1.7
CC(C)c1nc(CNC(=O)C2CCC(=O)N(CCc3ccc(Cl)cc3)C2)no1 (centres undefined)	8.5%	0.7%	0.5%	-18.3	2.2	-1.3%	-1.0
O=C(Cc1ccc(-n2c(=O)c3sccc3n(CC(=O)Nc3ccccc3F)c2=O)cc1)NCc1ccco1	-1.8%	-5.3%	1.7%	-0.8	2.8	-0.6%	-5.3
O=C(COC(=O)c1ccc[n+]([O-])c1)Nc1c(Br)cc([N+](=O)[O-])cc1Br	4.4%	·	·	-3.3	·	·	-1.3
CCN(CC)CCC#CC(O)(c1ccccc1)C1CCCCC1 (centres undefined)	5.2%	12.9%	6.3%	-2.9	8.0	·	-0.5
Cn1c(=O)cc(SCC(=O)N2CCN(c3ccccn3)CC2)c2ccccc21	8.3%	14.8%	?	9.2	-2.5	-9.2%	4.2
Cc1cc(C)c(C)c(S(=O)(=O)Nc2ccc(OCC(=O)O)cc2)c1C	25.6%	-4.1%	-37.2%[inhibitor]	·	0.0	-4.5%	-0.8
Fc1cccc(Cl)c1Cn1nnc2c(-n3ccnc3)ncnc21	1.6%	-5.0%	1.0%	-17.1	-1.0	-4.0%	6.0
O=C1CN(C(=O)COC(=O)c2ccccc2NCc2ccco2)c2ccccc2N1	2.9%	-7.6%	-1.6%	-2.1	-2.5	25.1µM*	-1.3
O/N=C(/c1ccc(F)cc1)C1CC1c1c(F)cccc1Cl (centres undefined)	12.5%	-0.7%	3.4%	-1.1	6.2	·	-4.6
CC(/C=N/n1c(-c2ccncc2)n[nH]c1=S)=C\c1ccco1	-26.6%	-12.0%	0.2%	-6.7	·	-0.5%	7.7
CC(=O)Nc1ccc(C(=O)Nc2ccc(S(=O)(=O)N3CCCCC3)cc2)cc1	10.5%	-13.9%	0.2%[15.4 µM]	?	3.3	·	·
CC(C(=O)NCc1cccnc1)c1ccc([N+](=O)[O-])cc1 (centres undefined)	3.7%	-3.4%	-0.2%[15.4 µM]	-5.8	9.6	0.7%	-1.9
Cc1cc(NC(=O)CSc2nc3ccccc3n2CC(=O)N2CC(C)CC(C)C2)no1 (centres undefined)	5.6%	4.4%	1.3%	-4.5	9.7	-5.8%	-1.8
N#Cc1c(SCC(=O)Nc2nncs2)sc2c(O)cc(=O)[nH]c12	14.1µM*	2.9%	3.7%[15.4 µM]	6.7	-82.4*	·	?
COc1ccc(OCC(=O)Nc2nc3ccccc3[nH]2)cc1	7.7%	-3.9%	-32.5%[inhibitor]	?	2.3	-21.0%	-2.0
O=C(COc1ccccc1)N(Cc1cccs1)C1CCS(=O)(=O)C1 (centres undefined)	5.2%	-8.7%	-19.2%	10.8	-1.5	-0.9%	2.0
Cc1ccc(C2Nc3ccc4ccccc4c3C3=C2C(=O)CC(C)(C)C3)o1 (centres undefined)	-0.5%	?	22.0%	-13.5	-0.4	14.1µM*	1.8
COC(=O)Cc1c(OC)ccn(CCc2c[nH]c3ccccc23)c1=O	24.5%	-10.5%	-1.2%[15.4 µM]	18.2	9.0	·	-0.8
O=C(NCCc1nnc2ccccn12)c1cccs1	17.8%	8.1%	26.1%	2.8	·	-8.6%	·
COc1ccccc1C(=O)NCC(=O)OCC(=O)c1ccc2c(c1)-c1ccccc1C2	4.7%	0.8%	5.3%	12.0	-13.9	-15.4%	8.5
O=C(NCCSc1ccccc1)c1ccc(CN2CCOCC2)cc1	2.3%	-1.5%	-23.5%	-19.7	7.0	0.6%	4.4
CN1CCO/C1=C(\C(Cl)=C(Cl)Cl)[N+](=O)[O-]	-3.0%	·	-3.9%[15.4 µM]	-1.9	-4.6	·	-0.1
C/C(=C\C=C(C#N)C#N)c1cc(C#N)c(N)o1	-7.5%	-12.7%	-10.3%[15.4 µM]	2.2	-24.0	·	?
NS(=O)(=O)c1ccc(NC(=O)c2c(Cl)cccc2Cl)cc1	3.8%	-2.1%	0.5%[15.4 µM]	22.4	-0.2	·	4.1
Cc1ccc(C)c(NC(=O)CSc2nc3[nH]ncc3c(=O)[nH]2)c1	-1.5%	18.1%	-12.5%	11.9	-0.4	2.2%	0.9
O=C(COc1cccnc1[N+](=O)[O-])c1c[nH]c2ccccc12	2.3%	-5.5%	2.4%	6.1	-1.4	-1.0%	1.5
Cc1ccc2nc(-c3ccc(NS(=O)(=O)c4ccc(F)cc4)cc3)sc2c1	-14.4%	-7.6%	7.2%[15.4 µM]	6.9	?	·	11.4
